FPR binder: binds the human formylpeptide receptor FPR. inhibition, %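 (tested at 6.7 µM)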. 24,000 tested, 0.74% active. P21462. FPR-expressing cells, fluorescent ligand binding, flow cytometry;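 also: 0% = buffer wells and 100% = receptor blocker peptide wells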
Target sequence (P21462 whole entry, looked up): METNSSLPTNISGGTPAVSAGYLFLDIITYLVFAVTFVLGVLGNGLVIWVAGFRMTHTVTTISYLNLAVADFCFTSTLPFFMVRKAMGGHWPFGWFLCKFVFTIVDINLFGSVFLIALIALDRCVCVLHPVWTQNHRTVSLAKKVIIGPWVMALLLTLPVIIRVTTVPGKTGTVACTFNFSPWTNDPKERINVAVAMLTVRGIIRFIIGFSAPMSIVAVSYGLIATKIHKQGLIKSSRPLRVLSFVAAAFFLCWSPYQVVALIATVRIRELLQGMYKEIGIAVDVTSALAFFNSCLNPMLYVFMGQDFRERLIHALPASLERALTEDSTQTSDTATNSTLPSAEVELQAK
VCAM-1 inhibition: inhibitors of TNFa-induced VCAM-1 surface display, cell-based, plate reader, pooled HUVEC, TNFa stimulus (AID 454) | HUVEC TNFa-induced VCAM-1 surface immunofluorescence, plate reader; numbers were filed only for top-ranked candidate wells | inhibition, % at 5 µM | 10,000 tested, 0.2% active;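 active = compound among top-ranked inhibitors of TNF-induced VCAM-1 adhesion protein staining, with the hit upheld by image or statistical review; inactive = the rest, including hits rejected on review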;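 also: 0% = TNFa with vehicle and 100% = cells without TNFa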
FPRL1 ligand: human FPRL1 ligand, with FPR counter-screen; 24,000 tested, 0.3% active; FPRL1-expressing cells, fluorescent ligand binding inhibition, flow cytometry; P25090; AID 441; inhibition, %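 (tested at 6.7 µM)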;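 also: 0% = buffer alone and 100% = receptor blocker peptide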
Target sequence (P25090 whole entry, looked up): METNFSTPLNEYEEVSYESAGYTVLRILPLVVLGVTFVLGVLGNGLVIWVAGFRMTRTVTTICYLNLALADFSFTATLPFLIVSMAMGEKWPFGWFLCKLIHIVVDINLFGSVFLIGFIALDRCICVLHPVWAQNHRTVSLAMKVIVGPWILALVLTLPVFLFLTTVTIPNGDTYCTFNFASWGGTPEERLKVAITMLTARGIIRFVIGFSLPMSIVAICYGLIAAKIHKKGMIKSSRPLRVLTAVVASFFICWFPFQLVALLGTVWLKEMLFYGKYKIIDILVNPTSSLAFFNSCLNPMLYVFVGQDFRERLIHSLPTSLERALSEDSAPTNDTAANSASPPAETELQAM
VCAM-1 imaging: inhibitors of TNFa-induced VCAM-1 surface display, imaging, high-content imaging, pooled HUVEC, TNFa stimulus (AID 456) | HUVEC TNFa-induced VCAM-1 surface expression, immunofluorescence imaging; numbers were filed only for top-ranked candidate wells | inhibition, % at 5 µM; hits with a dose series show IC50 in µM | 10,000 tested, 0.2% active;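 active = top tenth filtered wells with inhibition above zero that passed visual or statistical confirmation; inactive = the rest, including hits rejected on review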;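 also: 0% = stimulated vehicle wells and 100% = unstimulated cells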
VCAM-1 up imaging: boosters of cytokine-driven VCAM-1 levels – imaging, high-content imaging, pooled HUVEC, TNFa stimulus (AID 457). Pooled HUVEC, TNFa-induced VCAM-1 immunofluorescence imaging; hits of this screen are not shown here. calls only. 10,000 tested, 0.2% active;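 active = a top-ranked rise in VCAM-1 staining upheld on image or statistical review; inactive = the rest, including candidates rejected on review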;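 also: compounds tested at 5 µM in the well; cells exposed to compound for 24 hours before fixing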
* = called active by the depositor; i = inactive; · = not tested or not shown.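 The calls were made as follows, unless noted: active = mean above 30%; inconclusive = self-fluorescent; inactive = the rest.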 Only part of the results is shown. The share of hits here may be higher or lower than overall.

SMILES	VCAM-1 inhibition	VCAM-1 imaging	FPRL1 ligand	VCAM-1 up imaging	FPR binder
CCOC(=O)c1c(C)n(C)c2ccc(OCC(O)CN3CCC(C)CC3)cc12 (stereo unspecified)	·	·	-0.3	·	-6.0
Cc1ccc(CNC(=O)c2cn(C3CCCC3)c(=O)c3c2c2ccccc2n3C)o1	·	·	7.1	·	5.0
COC(=O)c1ccccc1NC(=O)c1ccc(-c2ccccc2F)o1	i	i	-2.2	i	12.2
Cc1ccc(C)n1-c1ccc2c(c1)COC2=O	·	·	-12.1	·	-4.6
COc1cccc(C2=NOC(C(=O)N3CCOCC3)C2)c1 (stereo unspecified)	·	·	4.9	·	0.6
N#CC1(c2ccccc2)CCC(=NO)CC1 (stereo unspecified)	i	i	-2.9	i	0.6
Cc1cc(Nc2ccc(F)cc2C)n2nc(C)nc2n1	·	·	-1.8	·	-3.3
COc1ccccc1NS(=O)(=O)c1ccc(OC)c(OC)c1	i	i	0.5	i	-0.1
COc1cccc(C(=O)Nc2cc(C)c3c(=O)oc4ccccc4c3n2)c1	i	i	-1.0	i	3.4
CC(NO)C(C)(C)NO (stereo unspecified)	i	i	-3.5	i	-8.0
Cc1ccccc1NC(=O)c1ccc(F)c(S(=O)(=O)N2CCN(c3ccccn3)CC2)c1	·	·	0.3	·	6.3
Cn1c(=O)cc(SCC(=O)N2CCCC2)c2ccc(Cl)cc21	·	·	10.5	·	-4.1
O=C(O)C1CCN(S(=O)(=O)N2CCOCC2)CC1	·	·	6.1	·	2.7
O=C(NCCN1CCOCC1)C1CCN(c2nc3ccccc3o2)CC1	·	·	5.2	·	-6.6
C[C@H](CCC(=O)O)[C@H]1CC[C@H]2[C@@H]3C(=O)C[C@@H]4CC(=O)CC[C@]4(C)[C@H]3CC(=O)[C@]12C	i	i	4.5	i	4.3
CCOC(=O)c1c(NC(=O)Cn2c(=O)oc3ccccc32)oc(C)c1C(C)=O	i	i	1.1	i	-5.9
O=C1C(=O)N(CCOCCO)C(c2ccccn2)/C1=C(\O)c1ccccc1 (stereo unspecified)	·	·	-2.2	·	-3.9
N[C@@H](Cc1ccccc1)c1nnc2sc(SCc3ccccc3)nn12	i	i	-1.6	i	-0.8
CCc1ccc(C2CC(c3ccc(Cl)cc3)n3nc(N)nc3N2)cc1 (stereo unspecified)	·	·	3.8	·	0.1
Cc1cc(C)nc(NS(=O)(=O)c2ccc(N3C(=O)C4CC=C(Cl)CC4C3=O)cc2)n1 (stereo unspecified)	·	·	-11.8	·	2.0

Pulled one by one from the list above (two):
SMILES	VCAM-1 inhibition	VCAM-1 imaging	FPRL1 ligand	VCAM-1 up imaging	FPR binder
O=C1C(=O)N(CCOCCO)C(c2ccccn2)/C1=C(\O)c1ccccc1 (stereo unspecified)	·	·	-2.2	·	-3.9
Cc1ccccc1NC(=O)c1ccc(F)c(S(=O)(=O)N2CCN(c3ccccn3)CC2)c1	·	·	0.3	·	6.3

Next part
SMILES	VCAM-1 inhibition	VCAM-1 imaging	FPRL1 ligand	VCAM-1 up imaging	FPR binder
O=C(CN1CCCCCC1)OCCN=C1NS(=O)(=O)c2ccccc21	i	i	-5.0	i	-0.5
O=S(=O)(NCc1cn2ccsc2n1)c1cccs1	·	·	5.1	·	10.1
Cc1ccc2c(c1)c1c3n2CC(=C2C(=O)OC(C)(C)OC2=O)NC3CCC1 (stereo unspecified)	i	i	-5.1	i	-4.4
CC(C)Oc1ccc(-c2nn(-c3ccccc3)cc2/C=c2\sc3ncnn3c2=O)cc1	i	i	0.9	i	-6.6
O=S(=O)(c1cccc(C(F)(F)F)c1)N(CCCN1CCOCC1)Cc1cccs1	·	·	-5.7	·	2.8
Cn1c(=O)c2c(nc(N3CCN(c4ccccc4)CC3)n2CCCc2ccccc2)n(C)c1=O	i	i	-14.7	i	6.9
O=C(Cn1c(=O)oc2cc(S(=O)(=O)N3CCCC3)ccc21)Nc1cccc(C(F)(F)F)c1	·	·	-1.2	·	5.8
CCCn1c(=N)n(CC(=O)OCC)c2ccccc21	·	·	-1.7	·	3.0
Cc1ccc(Cn2nnc3c(=O)n(CC(=O)NCc4ccc5c(c4)OCO5)cnc32)cc1	·	·	0.4	·	4.8
CCC(C)Sc1nnc(-c2c[nH]c3ccccc23)n1CCOC (stereo unspecified)	·	·	-0.7	·	-6.1
COc1cc2c(cc1OC)CN(S(C)(=O)=O)CC2	·	·	-8.2	·	-4.9
CCn1c(=O)cc(SCC(=O)N2CCOCC2)c2ccccc21	i	i	-1.8	i	-3.9
COc1cccc(-n2ccnc2SCC(=O)Nc2nccs2)c1	·	·	-19.2	·	0.4
CCOC(=O)C1CCCN(C(=O)CCCn2nc(C)n3c(cc4sccc43)c2=O)C1 (stereo unspecified)	·	·	6.2	·	9.1
CCOC(=O)CSc1nnc(Cn2c(=O)sc3ccccc32)n1-c1ccccc1C	·	·	4.2	·	-18.6
CC1CCCN(S(=O)(=O)c2ccc(C(=O)Nc3nnc(-c4ccccc4Cl)o3)cc2)C1 (stereo unspecified)	77.1*	i	7.1	i	12.6
O=C(NCC(c1cccnc1)N1CCN(c2ccccc2)CC1)C1CCCCC1 (stereo unspecified)	·	·	2.4	·	0.4
N=c1n(CCO)c2ccccc2n1CCOc1ccc(Cl)cc1Cl	·	·	-2.9	·	-0.2
O=C(CCN1C(=O)COc2ccccc21)NCCCN1CCN(c2ccc(F)cc2)CC1	·	·	-4.2	·	-2.5
O=C(O)CC(c1ccc(Cl)cc1)n1cccc1 (stereo unspecified)	·	·	-3.0	·	25.3
COc1cccc(-n2c(Cc3cc(=O)[nH]c(=O)[nH]3)nnc2SCC(=O)N2CCCC2)c1	·	·	-0.9	·	-1.0
COCCCNC(=O)c1ccc(N2CCCC2)c(NS(=O)(=O)c2ccc(C)cc2)c1	·	·	-0.9	·	11.6
O=C(O)CCC(=O)c1ccc2c(c1)OCCO2	·	·	-7.3	·	-10.0
O=c1n(-c2ccccc2)c(=O)n2n1CCC2	·	·	-3.0	·	-5.1
CN(C)c1nc2c(c(=O)[nH]c(=O)n2C)n1Cc1ccccc1Br	·	·	-4.3	·	-5.3
CCOC(=O)C(C)C1(O)c2ccccc2-c2ncccc21 (stereo unspecified)	i	i	-2.0	i	-2.2
C=CCC1(O)C(=O)Nc2ccccc21 (stereo unspecified)	i	i	1.3	i	5.4
CC(=O)N1CCc2cc(S(=O)(=O)CCC(=O)N3CCN(c4ccccn4)CC3)ccc21	i	i	3.9	i	-2.3
CCN1CCCC1CNC(=O)Cn1ncc2c(=O)oc3ccc(C)cc3c21 (stereo unspecified)	·	·	5.3	·	0.7
CCOc1ccc(NC(=O)Cn2nnc(-c3ccccc3F)n2)cc1	i	i	-3.0	i	-0.5
NC(=O)CCS(=O)(=O)CCN1CCCCC1	i	i	4.3	i	3.1
COCCCNc1nc(=S)[nH]c2cc(OC)c(OC)cc12	·	·	2.9	·	2.5
CC(C)CSc1nc2ccccc2n1CC(N)=O	i	i	1.3	i	4.0
CCC(CC)C1C(C#N)=C(N)Oc2n[nH]c(C)c21 (stereo unspecified)	i	i	3.3	i	-1.1
CC(C)c1ncc(C(O)c2cccc3ccccc23)n1C (stereo unspecified)	i	i	3.1	i	-3.4
COc1cccc(C2=NOC(C(=O)NCc3ccc(F)cc3)C2)c1 (stereo unspecified)	·	·	0.0	·	3.3
CC(=O)OCC(=O)c1ccc2ccn(C(C)=O)c2c1	i	i	3.7	i	-1.5
O=C(C1CC1)N1CCc2cc(Br)cc(S(=O)(=O)N3CCOCC3)c21	i	i	4.3	i	8.9
CCCN1CCN(CCCNC(=O)Cn2ncc3c4ccccc4n(C)c3c2=O)CC1	i	i	2.2	i	0.6
CC(C)(O)C1=NOC(c2ccccc2)C1 (stereo unspecified)	i	i	-6.1	i	-2.2
COc1ccccc1OC(=O)c1ccc(SC)cc1OC	i	i	-10.7	i	-6.5
COc1ccccc1C(=O)NCCn1ccc2ccccc21	·	·	-4.1	·	-0.9
COc1cc2c(cc1OC)C1=C(C#N)CC/C(=N\S(=O)(=O)c3ccccc3)N1CC2	·	·	-1.7	·	-9.6
Cc1ccnc(Nc2nc3ccccc3o2)n1	·	·	2.8	·	5.1
CCN(CC)CCCNC(=O)c1cc(-c2cccc(Cl)c2)on1	·	·	-0.2	·	-2.9
O=C(Nc1ccc(Cc2ccncc2)cc1)C1CC1	i	i	1.6	i	4.1
Cc1ccc(N(CC(=O)Nc2ccc3c(c2)OCCO3)S(=O)(=O)c2c(C)n[nH]c2C)cc1	·	·	1.6	·	-1.1
Cc1nc2ncnn2c(C)c1Cc1ccc(Cl)cc1F	·	·	2.3	·	3.4
CN1CC(=O)N(CC(=O)NCCc2ccc(F)cc2)c2ccccc2C1=O	i	i	-4.4	i	-2.2
COc1cccc(-c2nc3n(n2)C(c2ccc4c(c2)OCO4)C(C(N)=O)=C(C)N3)c1 (stereo unspecified)	·	·	-1.1	·	-0.6
CSCCC(NC(=O)OC(C)(C)C)C(=O)NC(CC(C)C)C(N)=O (stereo unspecified)	i	i	1.4	i	11.0
CCCC12CN3CC(C)(CN(C1)C3c1ccc(OC)cc1)C2=O (stereo unspecified)	·	·	-14.6	·	3.8
O=C(NCc1cccnc1)C1CCN(S(=O)(=O)c2cccs2)CC1	·	·	-0.1	·	0.6
CC1CCCCN1c1nnc(N)s1 (stereo unspecified)	·	·	3.3	·	-1.3
C=CCn1c(COc2cccc(C)c2)nnc1SCC(=O)NC(=O)NCc1ccco1	i	i	-2.6	i	-4.7
CN1C(=O)CC(N2CCC(c3nc4ccccc4[nH]3)CC2)C1=O (stereo unspecified)	·	·	-3.2	·	-3.8
O=C(Nc1ccccc1N1CCCCC1)c1ncoc1-c1ccc(F)cc1	i	i	-1.6	i	-5.5
CCOC(=O)c1[nH]c(C)c(CN(CCc2ccc(OC)c(OC)c2)C(=O)CCCC(=O)O)c1C	·	·	-18.2	·	-0.3
CC1CCOC2(O1)C(=O)N(CN1CCN(c3ccccc3F)CC1)c1ccccc12 (stereo unspecified)	·	·	-1.0	·	0.6
CC(C)C(=O)N1c2ccccc2NC2=C(C(=O)CCC2)C1c1ccc(N(C)C)cc1 (stereo unspecified)	·	·	4.0	·	0.7

Some of the entries so far, with values under each structure.
The line under a structure holds: VCAM-1 inhibition	VCAM-1 imaging	FPRL1 ligand	VCAM-1 up imaging	FPR binder
CN1CC(=O)N(CC(=O)NCCc2ccc(F)cc2)c2ccccc2C1=O
  i	i	-4.4	i	-2.2
COc1cccc(-c2nc3n(n2)C(c2ccc4c(c2)OCO4)C(C(N)=O)=C(C)N3)c1 (stereo unspecified)
  ·	·	-1.1	·	-0.6
CSCCC(NC(=O)OC(C)(C)C)C(=O)NC(CC(C)C)C(N)=O (stereo unspecified)
  i	i	1.4	i	11.0

(cont.)
SMILES	VCAM-1 inhibition	VCAM-1 imaging	FPRL1 ligand	VCAM-1 up imaging	FPR binder
COc1ccc2nc(Nc3ccc4c(c3)OCO4)sc2c1	·	·	3.2	·	-3.8
CC(C(=O)NCc1cccs1)n1cccc1 (stereo unspecified)	·	·	-0.2	·	-3.7
COCCN1Cc2cccc(C(=O)NCc3ccccn3)c2C1=O	·	·	4.2	·	2.1
CCOc1ccccc1NC(=O)CSc1ncnc2c1oc1ccccc12	·	·	0.5	·	1.3
Cc1ccccc1NS(=O)(=O)c1cc(S(C)(=O)=O)ccc1Cl	i	i	3.3	i	-1.6
CCOC(=O)CSc1ncnc2c1nnn2-c1ccc(F)cc1	·	·	1.1	·	-3.9
Cc1ccc(C(c2sc3nc(C)nn3c2O)N2CCN(C(=O)c3ccco3)CC2)cc1 (stereo unspecified)	·	·	-4.3	·	-3.0
O=C(NCc1ccccc1)C1CCN(S(=O)(=O)c2cccc3cccnc23)CC1	i	i	-1.4	i	-0.7
CCOC(=O)c1cccnc1SCc1cc(=O)n2ccccc2n1	·	·	-0.4	·	12.6
CC(C)CNC(=O)c1cc(-c2ccc(Cl)c(Cl)c2)on1	·	·	2.4	·	4.0
COc1ccccc1NC(=O)C1(C)Cc2ccccc2C(=O)O1 (stereo unspecified)	i	i	-0.1	i	-2.0
CCCCc1ccc(NC(=O)C2CCCO2)cc1 (stereo unspecified)	i	i	-3.9	i	0.4

Bioassay records from PubChem BioAssay.
